Mtb MenB inh: Mtb MenB enzyme inhibition | MenB enzyme assay, absorbance read-out; some hits fall short of the stated cut | inhibition, %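 (about 12 µg/mL by stock and volumes)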 | 0.43% of 100,000 active;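 active means mean of two replicates above 30%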;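 further: 0% = no compound and 100% = wells with inactive enzyme; the first replicate is given; strong numbers were not always called active; inactives centre near -10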
Target sequence (P9WNP5 whole entry, looked up): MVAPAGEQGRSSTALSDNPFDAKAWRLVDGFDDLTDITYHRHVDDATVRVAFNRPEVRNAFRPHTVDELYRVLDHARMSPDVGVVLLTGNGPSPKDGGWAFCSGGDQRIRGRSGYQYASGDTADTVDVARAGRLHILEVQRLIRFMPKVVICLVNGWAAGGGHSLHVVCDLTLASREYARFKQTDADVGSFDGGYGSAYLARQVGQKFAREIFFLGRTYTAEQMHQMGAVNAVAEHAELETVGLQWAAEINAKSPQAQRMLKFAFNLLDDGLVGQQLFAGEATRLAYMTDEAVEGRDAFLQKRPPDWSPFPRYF
MbtI inh: blocks the Mycobacterium tuberculosis siderophore enzyme MbtI. P9WFX0. purified MbtI enzyme, fluorescence intensity read-out. inhibition, %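 (about 17 µg/mL by stock and volumes)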. 0.89% of 100,000 active. AID 493033;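 active means above 50% in both replicates, above 80% if mildly self-fluorescent; inactive means the rest, strongly fluorescent compounds included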;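 further: 0% = mean of negative and 100% = mean of positive controls; one replicate is shown; some compounds called inactive have numbers as strong as hits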
Polio RdRp inh: poliovirus RNA polymerase inhibition. poliovirus polymerase elongation, fluorescence polarization; hits give low values. % elongation, % (compound at 16.7 µg/mL). 0.66% of 150,000 active. P03300; in the data active means % elongation below about 90%; further: some results filed as inactive read as strong as hits
Target sequence (P03300 1749-2209 limits assumed): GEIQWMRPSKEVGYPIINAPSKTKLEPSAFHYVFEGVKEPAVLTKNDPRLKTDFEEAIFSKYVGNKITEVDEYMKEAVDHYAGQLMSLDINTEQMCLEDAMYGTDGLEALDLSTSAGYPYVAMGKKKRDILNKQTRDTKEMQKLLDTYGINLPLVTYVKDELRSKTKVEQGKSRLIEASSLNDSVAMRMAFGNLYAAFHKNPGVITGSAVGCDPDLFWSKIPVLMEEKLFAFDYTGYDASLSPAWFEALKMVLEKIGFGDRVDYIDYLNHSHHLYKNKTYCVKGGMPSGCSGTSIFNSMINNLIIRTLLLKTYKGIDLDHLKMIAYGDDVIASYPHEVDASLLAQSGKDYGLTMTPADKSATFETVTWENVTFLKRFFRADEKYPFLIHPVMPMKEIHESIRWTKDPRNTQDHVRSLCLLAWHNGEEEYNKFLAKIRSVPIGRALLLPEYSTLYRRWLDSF
Polio RdRp inh intensity: recorded beside Polio RdRp inh, whose call it bears; % elongation; measured here: total intensity read-out; formula for this scale not given here;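 total fluorescence in place of polarization; lower means less elongation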
* marks the source's active call; other numbers are inactive results; . = not tested or not shown; & = joins results of further samples. Random draw from the library. Share with any hit: about 1.7%.

SMILES	Mtb MenB inh	MbtI inh	Polio RdRp inh	Polio RdRp inh intensity
CCCCc1nc2sc3c(NCc4ccccc4)ncnc3c2c2c1COC(C)(C)C2	-15	8	100	99
Cc1occc1C(=O)N/N=C/c1cn(-c2ccccc2)nc1-c1ccccc1	-17	-5	100	104
CCn1cc(C(=O)O)c(=O)c2cnc(N3CCN(C(=S)NCc4ccccc4)CC3)nc21	-18	-4	102	100
O=C(c1cn(-c2ccccc2)nc1-c1cccs1)N(CCO)c1ccccc1	.	2	104	102
CC(=O)O[C@]1(C(=O)CO)CCC2C3CCC4=CC(=O)CC[C@]4(C)C3[C@@H](O)C[C@@]21C (some centres not stated)	-10	.	108	101
COc1ccc(C2C(C(=O)N(C)c3ccc(C(C)C)cc3)CC(=O)N2c2ccc(OC)cc2)cc1 (configuration not stated)	-27	0	99	103
O=c1ccc2ccc3occc3c2o1	11	137	100	105
Cc1cccc(C(=O)NC(=S)Nc2ccc(N3CCN(C)CC3)cc2)c1	-24	7	100	101
Nc1ccc(C(c2ccc(N)cc2)C2NC(=O)c3ccccc32)cc1 (configuration not stated)	-1	.	102	104
CCCn1c(-c2ccncc2)n[nH]c1=S	3	16	97	99
COC(=O)c1nnc2nc(-c3ccc(Cl)cc3)cc(C)n12	-11	102	99	104
O=c1cc(O)c2ccccc2n1Cc1ccccc1F	-28	7	101	103
COc1ccccc1/C=C/C(=O)OCC(=O)N1CCCCC1	-17	-44	106	97
Cc1ccc(Oc2nnc(-c3cccs3)c3ccccc23)cc1	-13	-11	103	107
CCCCNc1c2c(nc3ccccc13)CC(C)(C)CC2O (configuration not stated)	-27	-6	101	101
CC(C)C1C(=O)NN(c2ccccc2)C1=S (configuration not stated)	2	.	101	108
Cc1noc(/C=C/N(C)C)c1S(=O)(=O)NC1CCCCC1	-6	-11	100	103
N#CC1=C(SCC(=O)Nc2cc(Cl)ccc2C#N)NC2=C(C(=O)CCC2)C1c1cccnc1 (configuration not stated)	-36	-272	108	110
COc1ccccc1-c1nn(CCC(=O)NCCc2ccc(Cl)cc2)c2nc(C)cc(C)c12	-25	62	99	102
COc1cc(OC)cc(-c2nc(NC(=O)c3cccc(N4C(=O)NC5CC4(C)Oc4ccccc45)c3)n[nH]2)c1 (configuration not stated)	3	6	97	102
CN1C(=S)NNC(=O)c2cc(Cl)ccc21	-12	112	103	100
c1ccc(-c2nc(-c3cccnc3)n[nH]2)nc1	-27	-5	107	111
c1ccc(-c2nnc(COc3ncnc4sccc34)o2)cc1	-4	133	118	118
NC(=O)C12CCCC(CCC1)C2	-4	-10	102	100
CC1CC(C)CN(S(=O)(=O)c2ccc(C(=O)Nc3nnc(-c4ccccn4)o3)cc2)C1 (configuration not stated)	-14	7	101	102

Shown with values under each structure: 3 of the compounds above.
Every second line gives: Mtb MenB inh | MbtI inh | Polio RdRp inh | Polio RdRp inh intensity
c1ccc(-c2nc(-c3cccnc3)n[nH]2)nc1
  -27 | -5 | 107 | 111
c1ccc(-c2nnc(COc3ncnc4sccc34)o2)cc1
  -4 | 133 | 118 | 118
NC(=O)C12CCCC(CCC1)C2
  -4 | -10 | 102 | 100

Next section.
SMILES	Mtb MenB inh	MbtI inh	Polio RdRp inh	Polio RdRp inh intensity
CCCOc1ccc(C2C(C(=O)/C=C/c3ccco3)=C(O)C(=O)N2CCCN2CCOCC2)cc1 (configuration not stated)	-87	14	101	102
CC1(C)CC(=O)c2cc(C#N)c(=O)n(-c3ccccc3)c2C1	-46	90	101	102
Cc1noc(C)c1CC(C#N)(Cc1c(C)noc1C)c1nc2ccccc2s1	-34	-10	102	90
NNC(=O)c1nn(-c2ccccc2)c(=O)c2c(N)scc12	1	41	91	97
Cc1onc2c(=O)[nH]nc(-c3ccccc3)c12	14	20	101	101
CN(C)c1ccc(/C=N/NC2=NCCN2)cc1	10	-61	100	93
CCc1ccc(NC(=S)NN)cc1	-37	6	101	106
Cc1nc(N)c(C#N)c(-c2ccc(Br)s2)c1C	-10	4	99	99
COC(=O)C1(C)Cc2ccc(Br)cc2C(=O)O1 (configuration not stated)	-17	-7	.	.
CN(C)C(=O)CSc1nc2ccccc2s1	-9	87	99	95
C[C@]12CC[C@H](O)C[C@@H]1CC[C@@H]1[C@@H]2CC[C@]2(C)C(=O)CC[C@@H]12	4	-7	101	100
CCN(CC)c1ccc2c(c1)OC(N)=C(C#N)C2c1cccc(F)c1 (configuration not stated)	-8	-10	119	150
CC(=O)Nc1ccccc1OCC(=O)N(C1CCCCC1)C1CCCCC1	1	1	106	110
CC(=O)N1CC(C(=O)Nc2cccc(-c3nnc4n3CCCCC4)c2)Oc2ccccc21 (configuration not stated)	-4	-6	96	97
CC(C)C(=O)Nc1sc2c(c1C(N)=O)CCCC2	-18	-10	103	102
CC(=O)Oc1ccc(-c2csnn2)cc1	-8	9	101	104
Cn1nc(C(C)(C)C)cc1C(=O)Nc1ccc(C(C)(C)C)cc1	-14	.	104	100
Nc1cc(C(=O)O)cc(C(=O)O)c1	1	108	94	95
Cc1c(C(=O)N2CCCC2)c(S(=O)(=O)N(C)Cc2ccccc2)c(C)n1C	-15	0	101	101
Cc1ccc(S(=O)(=O)N2CCC(C#N)=C(O)c3ccccc32)cc1	-2	.	99	97
CSc1ccccc1NC(=O)CCn1c(=O)sc2ccccc21	-19	0	99	104
CN(C(=O)Cn1cnc2c(cnn2C)c1=O)C1CCCCC1	3	-3	104	100
Cc1nn(CCc2nc(-c3ccco3)cs2)c2nc(-c3cccs3)cc(C(F)(F)F)c12	-10	11	107	95
C/C(=N/NC(N)=O)C1(O)CCCCC1	-18	-7	105	101
COc1ccc(NC(=S)NC2CC(C)(C)NC(C)(C)C2)cc1	-19	-5	102	100

Carrying on.
SMILES	Mtb MenB inh	MbtI inh	Polio RdRp inh	Polio RdRp inh intensity
Cc1cc(NC(=O)NCc2ccccc2)c(C(F)(F)F)o1	-28	-7	97	91
Cc1oc(C)c(C(=O)O)c1CN	5	.	102	97
CN(CCC#N)C(=O)c1cc(Cl)ccc1Cl	0	-14	101	103
COC(=O)CNS(=O)(=O)c1ccc(Oc2ccc(S(=O)(=O)NCC(=O)OC)cc2)cc1	-5	-35	99	102
COC(=O)c1cc2sc(C)cc2n1CC(=O)NCCc1ccccc1	-4	-8	101	101
O=C(c1ccccc1)N1CCCC(C(=O)N2CCC(Cc3ccccc3)CC2)C1 (configuration not stated)	3	5	105	98
O=C(O)CC(CP(c1ccccc1)c1ccccc1)C(=O)O (configuration not stated)	-146	-17	101	103
O=C(c1ccc(S(=O)(=O)N2CCCCCC2)cc1)N(c1ccccn1)c1ccccn1	-6	12	103	105
CC1CCN(C(=O)c2ccc(CSc3nc4ccncc4[nH]3)cc2)CC1	12	3	102	106
Cc1cn(S(=O)(=O)c2csc(Cl)c2Br)nc1-c1cccs1	4	1	103	101
CC1CCCC(NC(=O)Nc2cccs2)C1C (configuration not stated)	4	17	101	109
CCOC(=O)c1cnc2c(Cl)cccc2c1Cl	2	.	105	96
CC(C)(C)C(=O)NC(=S)Nc1ccc2c(c1)COC2=O	3	15	99	99
CC(=O)N[C@@H]1[C@@H](O)[C@H](O)[C@@H](CO)O[C@H]1O	4	-5	101	97
CN1C(=O)C(=Cc2cn(CC(=O)N3CCCC3)c3ccccc23)C(=O)N(C)C1=O	-17	-2	99	106
O=C(c1ccccc1)N1CCC2(CC1)Cc1ccccc1C2=O	-15	.	112	105
CCOc1ccc(C(=O)N2CC(C)CC(C)C2)cc1 (configuration not stated)	-16	.	100	98
Cc1ccc2c(CSc3nnc4ccccn34)cc(=O)oc2c1	9	32	96	100
Cc1noc(C)c1C(=O)O/N=C1\CCSc2ccc(F)cc21	-23	-8	104	105
Cn1c(N)c(C(=O)CSc2ccccn2)c(=O)n(C)c1=O	-10	-9	101	110
CCCn1c(N)c(N(C)C)c(=O)n(CC(=O)Nc2ccc(OC(F)(F)F)cc2)c1=O	-15	-28	103	104
Nc1cc(C(F)(F)F)ccc1C(F)(F)F	.	-5	103	104
CCOC(=O)N1CCC(NC(=O)c2oc3ccc4c(c3c2C)C(O)CC(C)(C)O4)CC1 (configuration not stated)	-25	87	103	102
NC(Cn1ccc(=O)c(O)c1)C(=O)O (configuration not stated)	8&-6	-14&-9	99&101	99&102
CCOC(=O)c1csc(NC(=O)c2cccs2)n1	0&-8	33&7	104&102	110&102

Exported comma-delimited: entries from further up
SMILES,Mtb MenB inh,MbtI inh,Polio RdRp inh,Polio RdRp inh intensity
Cc1oc(C)c(C(=O)O)c1CN,5,.,102,97
Cn1c(N)c(C(=O)CSc2ccccn2)c(=O)n(C)c1=O,-10,-9,101,110
O=C(c1ccccc1)N1CCC2(CC1)Cc1ccccc1C2=O,-15,.,112,105
CN1C(=O)C(=Cc2cn(CC(=O)N3CCCC3)c3ccccc23)C(=O)N(C)C1=O,-17,-2,99,106
CC1CCCC(NC(=O)Nc2cccs2)C1C (configuration not stated),4,17,101,109
CCOC(=O)c1cnc2c(Cl)cccc2c1Cl,2,.,105,96

Continuation:
SMILES	Mtb MenB inh	MbtI inh	Polio RdRp inh	Polio RdRp inh intensity
Cn1c(O)c(C=NCc2ccc3c(c2)OCO3)c(=O)n(C)c1=S	-23	.	115	119
CC(=O)Nc1ccc(N2CCN(Cc3ccccc3)CC2)cc1	12	-11	101	101
Cc1c(C(=O)O)sc2ncn(C)c(=O)c12	4	.	102	105
COc1cccc(CN(C(=O)CSc2nc(N)nc(N)n2)C23CC4CC(CC(C4)C2)C3)c1	-14	5	107	114
COc1ccc(C2(N3CCC4(CC3)OCCO4)C(=O)c3ccccc3C2=O)cc1	-16	-13	102	101
COC(=O)C(C)Oc1cc(O)c2c(=O)cc(-c3ccccc3)oc2c1 (configuration not stated)	-21	-15	99	102
CCCOc1ccc(C(=O)NCC2CCCO2)cc1 (configuration not stated)	-10	-28	104	101
CC(C)N(Cc1ccccc1)C(=O)Cn1c(=O)cnc2ccccc21	10	35	96	89
COc1ccc(N2CC(C(=O)Nc3ccc(S(=O)(=O)N4CCCC4)cc3)CC2=O)cc1 (configuration not stated)	-38	-2	104	102
CC(C)(C)n1ncc2c(=O)n(CC(=O)NC3CCCCC3)cnc21	-8	8	103	104
COCC(C)n1c(C)cc(C(=O)COC(=O)c2ccc(S(=O)(=O)N3CCCC3)cc2)c1C (configuration not stated)	15	-7	103	109
CN(C1CCCCC1)S(=O)(=O)c1ccc(Cl)c(C(=O)O)c1	10	-9	99	109
COC(=O)CCc1sc(NC2CCCCC2)nc1-c1ccc(OC)cc1	-36	21	91	93
c1cc2c(cc1OCc1nn[nH]n1)OCO2	-53	-5	104	101
Cn1c(=O)c2c(NCc3ccccc3)cc(=O)n(C)c2n(C)c1=O	0	-10	102	104
O=C(NCC1CCCCC1)C1CCCN(c2ncccn2)C1 (configuration not stated)	-40	-8	107	101
C=CCN1C(=O)/C(=C/c2ccc3ccccc3n2)S/C1=N/S(=O)(=O)c1ccc(C)cc1	-11	-12	102	108
COc1ccc(C2(CNC(=O)c3ccco3)CCOCC2)cc1	-13	.	78*	82*
CCn1c(SCC(=O)Nc2nc(-c3ccccc3)c(-c3ccccc3)o2)nc2ccccc2c1=O	-3	-30	99	102
NNC(=O)Cc1cc(=O)n(-c2ccc(F)cc2)[nH]1	5	16	93	98
O=C1c2ccccc2-c2ccccc21	3	4	101	96
Nc1cc(C(=O)O)ccc1Sc1ccccc1C(=O)O	-57	97	91	94
Cc1cc(C(=O)CSc2nc3ccccc3c(=O)[nH]2)c(C)n1-c1ccc2c(c1)OCO2	-31	63	104	99
CCN1CCN(Cc2ccc(NC3=NS(=O)(=O)C(c4ccc(C)c(C)c4)=C3C)cc2)CC1	-13	22	102	102
CN1/C(=C\C(=O)COC(=O)c2ccccc2)C(C)(C)c2ccccc21	.	-3	101	117

New compounds follow.
SMILES	Mtb MenB inh	MbtI inh	Polio RdRp inh	Polio RdRp inh intensity
COC(=O)c1scc(C)c1NNC(=O)C(F)(F)F	-19	-4	101	105
CCn1cc(CNC)c(C)n1	2	1	102	108
Cc1nc(Cc2nnc(SCc3cc(=O)oc4cc(C)c(C)cc34)o2)cs1	-30	53	-2.0*	24*
O=C(COc1ccc(Cl)cc1Cl)NCCCN1CCOCC1	-1	-9	104	104
Cc1ccc(CN2C(=O)/C(=C\c3ccc(C(=O)NCc4cccnc4)cc3)Oc3ccccc32)cc1	-8	10	103	99
Cc1cc(C)[n+](CC(O)CCl)n1CC(O)CCl (configuration not stated)	.	-2	103	107
O=C(CCc1c[nH]c2ccccc12)OCC(=O)c1cc2c3c(c1)CC(=O)N3CCC2	-9	-2	105	106
O=c1c2ccccc2nc2n1CCC2O (configuration not stated)	7	27	100	104
Cc1cc(N/C=C(\C#N)C(=O)c2ccc(Cl)cc2)no1	-14	23	105	102
C=CCN(C(=O)CSc1nc2c(c(=O)[nH]1)CCC2)c1ccccc1	-3	35	101	104
CN1C(=O)C(C)(C)c2cc(S(=O)(=O)NCC3CCC(C(=O)N4CCCC4)CC3)ccc21 (configuration not stated)	-21	-14	105	100
CCOc1ccccc1C1NC(=S)NC(c2ccccc2OCC)C12C(=O)NC(=O)NC2=O (configuration not stated)	-12	-28	102	104
COC(=O)c1nnn(-c2nonc2N)c1CN(C)C	-27	-8	102	105
O=C(COc1nncc2ccccc12)NCCC1=CCCCC1	0	5	104	106
Cc1ccc(C2=NC(C(F)(F)F)(C(F)(F)F)N=C(c3ccco3)O2)cc1	-7	1	104	105
O=c1c2cc3c(cc2[nH]c(=S)n1CCc1ccccc1Cl)OCO3	-7	-11	103	106

Quoted from the listing:
MbtI inh with Cc1nc(Cc2nnc(SCc3cc(=O)oc4cc(C)c(C)cc34)o2)cs1 = 53
Polio RdRp inh intensity with COC(=O)c1scc(C)c1NNC(=O)C(F)(F)F = 105

Bioassay records: PubChem, ICCB-Longwood Screening Facility, Harvard Medical School
